FGF22 binding = binders of human FGF22 protein, primary screen, FGF22 synaptogenesis inhibitor project, biophysical, thermal shift, single point; Fibroblast growth factor 22 (Homo sapiens), Q9HCT0; recombinant FGF22 thermal shift, SYPRO orange fluorescence; percent of sucrose octasulfate shift, DMSO zero; calls only at 9.99 µM; 340,000 compounds, 1.5% hits; AID 651658, 2012;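 active = melting point raised past a set limit in the mean and every replicate; three in four hits are not shown here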
Target sequence (Q9HCT0 whole entry, looked up): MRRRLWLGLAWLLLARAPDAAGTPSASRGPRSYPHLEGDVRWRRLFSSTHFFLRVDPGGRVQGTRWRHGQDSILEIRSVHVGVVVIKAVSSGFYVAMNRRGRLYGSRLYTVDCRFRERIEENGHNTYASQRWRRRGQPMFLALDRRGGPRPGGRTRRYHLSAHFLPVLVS
B2AR ag = beta2AR agonists driving receptor internalization, primary screen, cell-based, FAP fluorogen, flow cytometry; Am2.2-beta2AR cells; reference of the scale not given here; 340,000 compounds, 0.43% hits; Beta-2 adrenergic receptor (Homo sapiens), P07550; response, % (concentration not given with the values);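 active = response above a set limit, near 3 SD of response in nonfluorescent compounds, cut at about 42% in these data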;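 note: stock transfer was 100 nL into about 11 µL; a reference agonist was the positive control; negative values mostly stem from fluorescent compounds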
Target sequence (P07550 whole entry, looked up): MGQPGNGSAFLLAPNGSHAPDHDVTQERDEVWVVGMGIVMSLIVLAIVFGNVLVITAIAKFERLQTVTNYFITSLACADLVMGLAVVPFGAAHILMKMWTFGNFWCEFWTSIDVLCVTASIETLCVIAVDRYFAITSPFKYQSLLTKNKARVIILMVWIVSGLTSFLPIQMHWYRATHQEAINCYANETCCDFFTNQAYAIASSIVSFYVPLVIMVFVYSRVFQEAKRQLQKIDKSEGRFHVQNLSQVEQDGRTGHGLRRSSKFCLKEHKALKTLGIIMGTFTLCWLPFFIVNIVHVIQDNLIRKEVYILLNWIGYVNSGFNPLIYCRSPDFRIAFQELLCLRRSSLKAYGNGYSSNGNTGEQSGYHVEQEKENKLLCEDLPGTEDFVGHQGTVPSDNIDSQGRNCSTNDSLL
Ecoli growth = E. coli growth inhibition, primary screen, OD600 | 330,000 compounds, 0.21% hits | AID 1053175, 2014 | OD600 absorbance (test concentration not listed) | Escherichia coli growth, 23 h; hits give low values;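 active = OD600 absorbance below the run mean of sample wells minus 3.6 SD, in any replicate, cut at about 0.56 in these data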;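 note: stock transfer was 300 nL into about 60 µL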
HNF4A DNA FP = change in binding of human HNF4A to DNA, primary screen, biochemical, fluorescence polarization, FITC-DNA; activity change, % at 10 µM; 360,000 compounds, 0.3% hits; 1 h; in the data active = activity change above about 30%, passing the limit was not always enough;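 note: controls were the assay level and a saturating level of protein; the project sought stronger binding though the title names inhibitors; some compounds called inactive have numbers as strong as hits; positive values seem to mean higher polarization but the record does not say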
LANA-H2A inh = blockers of LANA interaction with H2A/H2B – biochemical, FP readout, HTS, primary screen; Protein LANA1 (Human herpesvirus 8 type P (isolate GK18)), Q9QR71; cell-free LANA-H2A/H2B peptide, fluorescence polarization; inhibition, % (test concentration not listed); 320,000 compounds, 0.6% hits; AID 2629, 2010; in the data active = inhibition mostly above about 10%, no sharp cut-off; inactive = mostly below about 6.7%;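 note: stock transfer was 7.5 nL into about 10 µL; 0% = median of vehicle wells and 100% = median of positive control wells; one replicate is shown; the record names a cut of 25% in any replicate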
ALR H2O2 inh = inhibitors of human ALR sulfhydryl oxidase, primary screen, biochemical, H2O2 detection, HRP-luminol luminescence, single point | AID 485317, 2010 | 290,000 compounds, 3.8% hits | inhibition, % (test concentration not listed) | FAD-linked sulfhydryl oxidase ALR (Homo sapiens), P55789 | purified ALR, DTT oxidation;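 active = mean and each replicate at 75% or more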;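 note: stock transfer was 7.5 nL into about 7.5 µL; 0% = neutral wells and 100% = wells with inactivated enzyme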
Target sequence (P55789 whole entry, looked up): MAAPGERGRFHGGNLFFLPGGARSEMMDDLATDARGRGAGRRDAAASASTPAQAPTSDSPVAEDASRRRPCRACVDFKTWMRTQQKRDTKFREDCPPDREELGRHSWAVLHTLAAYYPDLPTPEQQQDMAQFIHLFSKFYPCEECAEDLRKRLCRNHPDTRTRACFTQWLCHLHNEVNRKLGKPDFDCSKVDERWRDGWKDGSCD
UCH37 inh = inhibitors of human UCH37 deubiquitinase, primary screen, biochemical, Ub-AMC cleavage, fluorescence; Ubiquitin carboxyl-terminal hydrolase isozyme L5 (Homo sapiens), Q9Y5K5; purified proteasome/UCH37; inhibition, % (no concentration beside the values); 330,000 compounds, 0.33% hits; AID 588478, 2011;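 active = mean of two replicates above 20%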;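 note: 0% = compound-free wells with enzyme and 100% = wells lacking proteasome; stock transfer was 100 nL into about 20 µL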
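Material: human UCH37 enzyme supplied as purified proteasome complex / Amount: 0.15 nM proteasome as dispensed / Buffer or medium: pH 7.4 Tris-HCl (50 mM) with ovalbumin, ATP-MgCl2, DTT / Times: preincubation 30 min, reaction 25 min, room temperature / Technique: AMC fluorescence from Ub-AMC cleavage, excitation 355 nm, emission 460 nm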
The depositor's hits bear a star; i = inactive; / = not tested or not shown. Only part of the results is shown; count on the stated rates, not on these rows.

Below each SMILES: FGF22 binding	B2AR ag	Ecoli growth	HNF4A DNA FP	LANA-H2A inh	ALR H2O2 inh	UCH37 inh
COc1ccc(C2CC(c3cccs3)=NN2C(=O)CSc2nc(=O)n3ccccc3n2)cc1 (centres undefined)
  i	11	0.65	-0.4	/	/	5.6
COCCCN(C(=O)CSc1nc2ccccc2c(=O)n1C)c1c(N)n(Cc2ccccc2)c(=O)[nH]c1=O
  i	-2	0.67	2.0	/	/	1.6
CCN1CCN(C(=O)C(=O)c2c(C)[nH]c3ccccc23)CC1
  i	5	0.7	2.4	-1.2	17	12
CCOC(=O)c1c2c(c(=S)n(-c3ccccc3)c1N)CCC2
  /	2	0.66	-2.5	0.6	-43	4.8
CCCCn1c(N)c(N(CCOC)C(=O)COC(=O)COc2c(C)cc(C)cc2C)c(=O)[nH]c1=O
  i	-7	0.7	-1.5	-2.9	/	-2.9
Cc1ccc(-c2ccc(/C=N/n3cnnc3)o2)cc1
  i	1	/	0.4	-0.9	0	/
O=C(CNC(=O)c1cccc(OC(F)F)c1)Nc1ccc(Cl)cc1
  i	-3	0.63	1.4	9.4	/	-0.8
CS/C(=C\[N+](=O)[O-])Nc1ccccc1
  /	11	/	1.6	2.1	80*	4.7
CCn1c2ccccc2c2cc(NC(=O)N3CCOCC3)ccc21
  /	10	0.72	6.4	-0.6	70	-19
O=C(NC1CCCCC1)c1ccc(N2CCCC2=O)cc1
  /	-4	0.71	-3.1	-0.6	/	-0.2
CN(CC(=O)Nc1ccc(Cl)c(C(F)(F)F)c1)Cc1cc(=O)n2ccsc2n1
  i	4	0.71	2.5	1.9	5	0.1
COc1ccc(CNC(=O)C(c2ccco2)N(C(=O)c2ccccn2)c2ccccc2)cc1 (centres undefined)
  i	-3	0.67	2.6	0.7	-24	-0.1
O=C(Nc1ccc(-c2noc(COc3ccccc3Cl)n2)cc1)c1ccco1
  /	16	0.69	4.3	4.0	-6	-0.7
Cc1ccc([C@@H]2[C@@H]3C(=O)N(c4ccccc4)C(=O)[C@@H]3[C@]3(Cc4ccccc4)C(=O)N(CC4CC4)CC(=O)N23)o1
  i	-1	/	1.3	4.6	2	2.4
COCCOc1cc(N2C(=O)CSCC2=O)c(Cl)cc1Cl
  i	-2	0.67	0.3	0.3	1	3.2
Cn1cnc(C(F)(F)F)c1-c1ccc([N+](=O)[O-])cc1
  /	-3	0.68	-0.3	-1.4	-8	3.2
Oc1[nH]c2ccccc2c1N=Nc1c(F)c(F)c(C(F)(F)F)c(F)c1F
  i	3	0.69	3.6	-0.8	-10	5.5
CC(C)Cn1c(SC(C)C(=O)Nc2ccc3c(c2)OCCO3)nc2ccccc2c1=O (centres undefined)
  /	-4	0.71	-3.1	/	/	1.8
O=c1c2cn(Cc3ccc(F)cc3)c3ccccc3c-2nn1Cc1ccc(F)cc1
  i	1	0.71	-2.8	/	/	3.4
Cc1ccc(/C=N/NC(=O)CNC(=O)Cc2ccccc2)o1
  i	2	/	-4.0	-0.7	0	/
Cc1cc(C)n2cc(CSc3nnc(-c4ccccc4)c(-c4ccccc4)n3)nc2n1
  i	6	0.71	2.4	/	/	3.1
COc1ccc(-c2cc(C(=O)NC(Cc3cc4ccccc4[nH]3)C(=O)O)c(C)o2)cc1OC (centres undefined)
  i	7	0.64	0.0	-3.9	9	1.6
Cc1c(C(=O)NCC(C)(C)N2CCOCC2)oc2ccccc12
  i	3	0.65	4.1	1.3	-3	4.3
COc1ccc(S(=O)(=O)N2CCOC2CNC(=O)C(=O)NCCc2ccccc2)cc1 (centres undefined)
  i	3	0.8	4.1	1.2	-1	1.1
Cn1c(=O)cc(OCCCC(=O)N2CCCCC2)c2ccccc21
  /	-4	0.7	-1.8	-1.6	-4	1.2
COc1cccc2c1nc(C)c1cc(C)oc12
  /	-6	0.7	1.1	-3.7	-7	-7.9
COC(=O)c1sc(C(F)(F)F)c(-c2ccccc2)c1S(=O)(=O)N1CCOCC1
  i	4	0.63	0.5	/	/	2.6
CC(C)NC(=O)CN1C(=O)NC(CCc2ccccc2)C1=O (centres undefined)
  /	0	0.72	-0.7	-1.1	-1	0.5
O=[N+]([O-])c1cncc([N+](=O)[O-])c1Nc1cccc(O)c1
  i	4	/	-1.4	0.4	-59	/
CCOC(=O)C1C(=O)OC(C)(C)C1C(C)C(=O)c1ccc(C)cc1C (centres undefined)
  i	13	/	0.4	2.1	1	/
CCCCNC(=O)c1ccc(NC(=O)C2CCCO2)cc1 (centres undefined)
  /	-4	0.66	1.4	4.2	0	0.3
O=C(Nc1ccc(F)cc1F)c1cc(Cl)sc1Cl
  i	-6	0.69	-2.6	0.0	-16	3.6
COc1ccccc1CNC(=O)CCc1nnc2ccc(NCCCN3CCCC3=O)nn12
  i	-14	0.68	-9.4	3.2	-3	-0.6
O=C(NCCN1CCOCC1)c1sc2ccccc2c1Cl
  /	-9	0.65	1.9	9.5	-5	2.1
CCOC(=O)c1ccc(NC(=O)c2cc(C)nc3ccccc23)cc1
  i	-4	0.66	5.4	3.9	/	0.5
CN(Cc1ccccc1)C(=O)c1ccc(NC(=O)Cc2cccc(NC(=O)C3CCCN(C(=O)C4CCCC4)C3)c2)cc1 (centres undefined)
  i	3	0.74	1.3	4.3	0	3.2
CC(C(=O)NCCc1nc2ccccc2[nH]1)n1cc([N+](=O)[O-])cn1 (centres undefined)
  i	0	0.69	0.6	1.4	7	1.9
C[C@]12C(=O)N(c3ccc(Br)cc3)C(=O)N1[C@H]1c3ccccc3OC[C@@H]1[C@H]2c1ccccc1
  i	8	/	-0.4	1.1	-2	-0.9
Cc1cc(C)c2[nH]c(=O)c(CN(Cc3ccc4c(c3)OCO4)Cc3nnnn3C3CCCC3)cc2c1
  i	-20	0.72	2.2	3.1	0	1.7
Cc1ccc(-c2nnc(SCC(=O)NC3CCCC3)n2C)cc1
  i	-2	0.66	0.5	-0.6	-4	2.9
CN(C(=O)COC(=O)CNC(=O)c1ccc2ccccc2c1)c1c(N)n(Cc2ccccc2)c(=O)[nH]c1=O
  i	4	0.7	1.8	-9.9	-2	-0.9
C=CCC(CC=C)(C(N)=O)c1ccccc1
  i	-2	0.71	0.2	-0.9	-3	3.1
O=C(Nc1ccc(Cl)c(Cl)c1)N(Cc1cccnc1)Cc1ccco1
  /	-6	0.69	-1.9	5.2	1	-0.6
Oc1ccc2ccccc2c1C=NC1CCCCC1
  i	10	0.67	5.4	-1.7	0	7.2
Fc1ccc(-n2cc(CNCCc3ccccn3)c(-c3ccccc3Cl)n2)cc1
  i	-2	/	-0.4	-1.6	-4	/

Complete entries from above. Values in the order: FGF22 binding	B2AR ag	Ecoli growth	HNF4A DNA FP	LANA-H2A inh	ALR H2O2 inh	UCH37 inh
`CCOC(=O)c1ccc(NC(=O)c2cc(C)nc3ccccc23)cc1` reads i	-4	0.66	5.4	3.9	/	0.5
`O=C(Nc1ccc(Cl)c(Cl)c1)N(Cc1cccnc1)Cc1ccco1` reads /	-6	0.69	-1.9	5.2	1	-0.6
`C[C@]12C(=O)N(c3ccc(Br)cc3)C(=O)N1[C@H]1c3ccccc3OC[C@@H]1[C@H]2c1ccccc1` reads i	8	/	-0.4	1.1	-2	-0.9

Additional results follow:
Below each SMILES: FGF22 binding	B2AR ag	Ecoli growth	HNF4A DNA FP	LANA-H2A inh	ALR H2O2 inh	UCH37 inh
O=C(COc1ccccc1)NC(=S)Nc1cccc([N+](=O)[O-])c1
  /	9	0.69	-0.3	0.6	-10	1.9
O=C(CCn1nnc2ccccc21)OCC(=O)c1ccc([N+](=O)[O-])cc1
  i	2	0.7	-0.1	3.3	-12	5.5
CCN(C(=O)COC(=O)c1nc2nc(C)cc(C)n2n1)C1CCS(=O)(=O)C1 (centres undefined)
  i	-2	0.72	-1.3	6.5	-3	0.8
COc1ccccc1CNC(=O)COC(=O)c1cccc(S(=O)(=O)N2CCCCC2)c1
  i	6	/	-1.4	-8.1	1	/
CCNC(=S)NCc1ccc2[nH]c(C)cc2c1
  i	1	0.67	-1.0	-2.8	23	-0.8
O=C(Nc1ccc(NC(=O)c2cccs2)c(Cl)c1)c1ccco1
  i	-16	0.68	4.8	0.3	9	4.5
CCn1c(SCC(=O)Nc2cc(C)on2)nnc1-c1ccc(OC)cc1
  i	-5	0.67	-0.1	0.9	-9	1.0
NC(CSS(=O)(=O)O)=NCCC12CC3CC(CC(O)(C3)C1)C2
  i	5	0.66	2.1	3.0	85*	2.5
CCOC(=O)C1=C(C)Nc2nc(SCC)[nH]c(=O)c2C1c1ccncc1 (centres undefined)
  /	-1	0.7	-3.7	-10	-5	-1.1
N#Cc1c(OCC(=O)c2ccccc2)nc2c(c1-c1ccco1)CCc1ccccc1-2
  /	2	0.76	17	3.6	4	-334
COC(=O)c1ccc2c(c1)S(=O)(=O)NC(=NCc1ccco1)S2
  /	19	0.73	3.7	1.8	1	-4.8
Clc1ccc(Cn2c(/C=C/c3ccco3)nc3ccccc32)cc1
  /	-1	0.68	25	4.7	1	-126
CCOC(=O)N1CCN(C(=O)c2ccc3c(c2)N(Cc2cc(C)ccc2C)C(=O)c2ccccc2S3=O)CC1 (centres undefined)
  i	-7	0.69	-3.1	-5.4	-6	4.6
COc1ccc(Cl)cc1NC(=O)CN(C)CC(=O)Nc1ccc(Br)cc1
  i	6	0.67	0.3	-2.2	-66	-0.5
CCOc1ccccc1NC(=O)CSc1nnc(-c2ccccc2Cl)n1Cc1ccco1
  /	6	0.72	2.0	4.3	-4	3.9
Cc1cc(C)cc(-n2c(C)nc3cc(C(=O)O)ccc32)c1
  i	-2	0.7	1.2	5.1	2	4.6
COCCn1c(SCC(=O)Nc2ccccc2C(F)(F)F)nc2ccccc2c1=O
  i	-8	0.7	-2.1	1.4	/	5.1
COc1ccc(NS(=O)(=O)c2cccc(C(=O)N/N=C(/C)c3ccc(-n4ccnc4)cc3)c2)cc1
  i	-2	0.69	4.8	/	/	-11
c1ccc(-c2nccc(-c3ccc(-n4cnc5ccccc54)cc3)n2)cc1
  /	71*	0.65	-1.9	-1.2	-1	3.8
CCN=c1sc2ccccc2n1CC(O)COc1ccccc1 (centres undefined)
  /	-5	0.72	-1.9	1.0	30	4.9

Bioassay records from PubChem BioAssay.
